Menin-MLL FL inh – inhibitors of human menin-MLL interaction, wild-type MLL peptide. 290,000 tested, under 10 active. Fluorescence polarization, fluorescein-MLL peptide displacement from menin. FP activity change, % at 61.4 µM; inconclusive = falling polarisation curve, or a change in total fluorescence; inactive = total fluorescence flat and polarisation flat or rising; no compound was filed as active; the % refers to the polarisation; negative = inhibition;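 further: % of control where 0% means no effect; inhibitors lower the polarisation; unlabelled MLL peptide was the positive control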
gsp agonist – agonists of gsp mutant (McCune-Albright syndrome). hit rate 0.13% among 340,000. gsp mutant cells, cAMP HTRF, 30 min; control for the full effect not named in the record. Potency, µM (top dose mostly 76.9 µM), without a hit: at the highest dose activation (cAMP increase), actives largely listed as activators; active = well fitted activation curve with a large enough effect; inconclusive = small, poorly fitted or top-dose-only effect, or another doubt; inactive = no such curve, though single readings can be large or run the other way; cell line not stated here;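 further: phosphodiesterase inhibitor Ro 20-1724 added with compounds to block cAMP breakdown; potency means the concentration at half of the fitted maximal effect; nearly all actives have a fitted effect of over 60% in size; about a fifth of the inactives were tested at one dose only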
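Cells in DMEM/10% FBS with G418 were pretreated with compounds in DMSO plus […] (300 uM stock) for 30 min at 37C. cAMP was measured by HTRF (cAMP-d2 plus anti-cAMP antibody-K) after 30 min at room temperature.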
gsp antagonist – antagonizes gsp, the McCune-Albright syndrome mutation; hit rate 0.4% among 340,000; gsp-mutant cells, cAMP HTRF, 30 min; control for the full effect not named in the record; Potency, µM (top dose mostly 76.9 µM), without a hit: top-dose activity change, negative = inhibition, hits mostly inhibitors; active = falling curve of any shape with a large fitted effect; inconclusive = falling curve, mostly with a smaller effect; inactive = flat or rising curve; cell line not stated here;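 further: intracellular cAMP measured with PDE inhibitor Ro 20-1724 present during compound exposure; potency means the concentration at half of the fitted maximal effect; on the % scale 0 is the no-effect control and ±100 the full control effect; nearly all actives have a fitted effect of over 65% in size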
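G418-selected cells were plated in DMEM/10% FBS for 16-24 h at 37C, then treated with compounds plus the PDE inhibitor […] (300 uM solution added) for 30 min at 37C. Intracellular cAMP was measured by HTRF after 30 min lysis at room temperature.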
Sfp inh – blocks B. subtilis Sfp PPTase activity. Q9F4F7. Biochemical Sfp PPTase activity, qHTS. Potency, µM, without a hit: max response, negative = inhibition, usual class: inhibitors. hit rate 3.5% among 310,000. AID 1490; active means well fitted inhibition curve with a large enough effect; inconclusive means small, poorly fitted or top-dose-only effect, or another doubt; inactive means no such curve, though single readings can be large or run the other way;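 further: the enzyme is Sfp with the accession as filed and its product quenches rhodamine fluorescence; potency means the concentration at half of the fitted maximal effect; 0% = enzyme reaction without inhibitor and -100% = no enzyme wells; top concentration of the series not given in the record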
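Step 1, compound plus 15 nM Sfp-PPTase, 15 min, room temperature. Step 2, add rhodamine-CoA (5 uM) and BHQ-2-YbbR (12.5 uM). Step 3, read 525/598 nm fluorescence at 0 and 30 min.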
TRPML1 inh – blocks the human TRPML1 channel | Q9GZU1 | TRPML1-inducible cells, Ca2+ dye fluorescence, FDSS; stronger effect = lower value; inhibition of EC80 agonist-evoked calcium signal | activity change, negative = inhibition, % (no concentration beside the values) | hit rate 0.02% among 390,000; in the data active means activity change below about -50%; inconclusive means about -30% to -50%; inactive means above about -30%;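 further: stimulus is agonist 54-4 at its EC80 concentration; on the % scale 0 is the no-effect control and ±100 the full control effect; compound concentration not given in the record; the text of the record puts the active cut at -80%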
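Calcium fluorescence in TRPML1-DL cells induced overnight with Tet: a 110 s read after compound pin addition, then a 110 s antagonist read after challenge with 54-4 at 4 uM final (EC80).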
TRPV1 PAM – enhances activation of the human vanilloid receptor TRPV1. TRPV1-expressing cells, Fluo-8 calcium influx, capsaicin EC20 potentiation; host cell line not named in the record; control for the full effect not named in the record. hit rate 0.02% among 320,000. AID 540277. potentiation, % at 8.33 µM. Q8NER1; active means potentiation above 80%; inconclusive means 30% to 80%; inactive means below 30%; further: 0% is about no effect
Target sequence (Q8NER1 whole entry, looked up): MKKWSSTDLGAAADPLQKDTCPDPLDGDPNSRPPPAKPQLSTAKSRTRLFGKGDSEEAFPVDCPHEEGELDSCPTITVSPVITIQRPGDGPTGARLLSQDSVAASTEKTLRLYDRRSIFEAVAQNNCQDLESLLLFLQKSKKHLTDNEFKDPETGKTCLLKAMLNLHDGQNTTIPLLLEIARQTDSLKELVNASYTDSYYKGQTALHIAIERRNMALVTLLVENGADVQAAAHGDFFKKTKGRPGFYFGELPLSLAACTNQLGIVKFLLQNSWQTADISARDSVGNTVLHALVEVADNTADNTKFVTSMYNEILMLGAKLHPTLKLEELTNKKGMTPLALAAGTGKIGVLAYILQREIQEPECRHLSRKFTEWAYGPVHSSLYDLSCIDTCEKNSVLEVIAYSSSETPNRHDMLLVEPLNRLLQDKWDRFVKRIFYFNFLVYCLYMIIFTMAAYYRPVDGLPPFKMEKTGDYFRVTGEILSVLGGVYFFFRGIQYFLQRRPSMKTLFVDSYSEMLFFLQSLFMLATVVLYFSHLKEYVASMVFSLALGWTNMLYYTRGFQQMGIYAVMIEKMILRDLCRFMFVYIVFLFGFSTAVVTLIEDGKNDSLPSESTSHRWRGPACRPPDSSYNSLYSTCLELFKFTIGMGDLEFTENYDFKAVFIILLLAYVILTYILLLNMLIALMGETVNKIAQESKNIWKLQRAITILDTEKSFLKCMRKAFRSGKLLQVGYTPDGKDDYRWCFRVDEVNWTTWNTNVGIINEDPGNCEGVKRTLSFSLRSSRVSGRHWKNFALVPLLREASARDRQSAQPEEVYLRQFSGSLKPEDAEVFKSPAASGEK
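Cells expressing TRPV1 were dye-loaded with Fluo-8 and read kinetically: 10 s baseline, 3 min after compound (agonist portion), then 2 min after EC20 capsaicin (allosteric enhancer portion). Calcium-bound dye fluorescence at 480/520 nm.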
ClpP mod – qHTS Assay for Activators of ClpP; purified B. subtilis ClpP, FRET peptide cleavage, 20 min; Potency, µM (titrated, usually from 57.5 µM), inactives show at the highest dose activity change, negative = active; hit rate 1.9% among 340,000; AID 651965, 2013; ATP-dependent Clp protease proteolytic subunit (Bacillus subtilis (strain 168)), P80244; active = well fitted falling curve with a large enough effect; inconclusive = small, poorly fitted or top-dose-only effect; inactive = no such curve, though single readings can be large or run the other way; further: potency means the concentration at half of the fitted maximal effect; the source files actives as falling curves though it sought activators and does not explain the sign; nearly all actives have a fitted effect of over 65% in size; many hits overshoot -100%
Target sequence (P80244 whole entry, looked up): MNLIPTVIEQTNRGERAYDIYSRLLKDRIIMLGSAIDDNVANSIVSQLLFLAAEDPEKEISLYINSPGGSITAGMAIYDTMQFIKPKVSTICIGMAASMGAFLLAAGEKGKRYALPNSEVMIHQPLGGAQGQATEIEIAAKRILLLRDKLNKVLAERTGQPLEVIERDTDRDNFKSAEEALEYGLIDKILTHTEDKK
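Buffer: 100 mM Tris/HCl pH8, 100 mM KCl, 0.05% low protease BSA, 2.5% glycerol, 0.01% Tween-20. ClpP 10 microg/mL final; 20 min RT; delta FRET normalized to ADEP and DMSO controls.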
* marks the source's active call; other numbers are inactive results; u = inconclusive; x = not tested or not shown; & = joins results of further samples; [ ] = dose if it differs, or a comment.

SMILES	Menin-MLL FL inh	gsp agonist	gsp antagonist	Sfp inh	TRPML1 inh	TRPV1 PAM	ClpP mod
COCCn1nnnc1CN(CCc1ccc(OC)c(OC)c1)Cc1cc2ccc(C)cc2[nH]c1=O	3.1	17%	-3%	u	-4	-14	-17%
COc1ccc(CCN(C)C(=O)C2CCN(Cc3ccc(C)cc3)CC2)cc1OC	4.5	u	-6%	-7%	-3	-3	1.1%
CCOC(=O)N1CCN(C(=O)Cn2ncn3nc(-c4cccs4)cc3c2=O)CC1	0.6	15%	-6%	18%	-12	-5	u
Nc1nnnn1/N=C/c1cccc(OCc2ccccc2Cl)c1	3.9	13%	9%	25%	-2	18	-2.8%
COc1ccc(C(=O)Nc2ccc(OC)c([N+](=O)[O-])c2)cc1Br	-0.6	-32%[inhibitor]	-8%	-4%	21	-16	2.1%
CC1(C)CC(=O)c2cc(O)ccc2O1	-3.5	3%	6%	13%	6	17	1.2%
CC(=O)N1CCN(CC(=O)Nc2c(Cl)cccc2Cl)CC1	1.2	4%	12%	-26%	12	1	3.6%
COc1ccccc1CNC(=O)C1CC2Cn3c(nc4ccccc43)C2N1C (configuration not stated)	2.0	x	5%	14%	1	25	0.6%
OC(COc1cccc2ccccc12)CN1CCN(c2ccccc2)CC1 (configuration not stated)	-17	11%	2%	-2%	9	24	-9.4%
CCOc1ccc(NC(=O)c2cc3cc4ccc(C)cc4nc3o2)cc1	0.9	x	x	12%	-10	-3	-9.6%
Cn1c2ccccc2c(=O)c2c(=O)n(Cc3ccco3)c(-c3ccc(Cl)cc3Cl)nc21	3.1	x	x	8.9µM*	x	3	x
CC(=O)c1c(C)oc2ccc(NS(=O)(=O)c3ccc(C)cc3)cc12	0.5	u	4%	1%	4	24	x
COc1ccc2c(=O)c3c(=O)n(CCc4ccccc4)c(C(C)C)nc3oc2c1	7.1	8%[15.4 µM]	-8%	7%	31	-11	x
Cc1cc(=O)oc(C)c1C(=O)NCCCN1CCN(c2ccc(F)cc2)CC1	-3.1	-1%	13%	4%	-5	3	2.1%
CCCCNC(=O)c1oc2ccc(S(=O)(=O)N3CCCC3)cc2c1C	-2.9	6%[15.4 µM]	-7%	10%	18	-19	x
O=C1C(Cl)=C(NCCN2CCOCC2)C(=O)c2ccccc21	-11	-5%	-8%	1%	-4	1	x
CC(=O)Nc1ccc(Sc2ccccc2C(=O)O)cc1	0.0	-27%	5%	11%	-11	-8	x
CCCC(=O)Nc1c2c(nn1-c1ccc(OC)cc1)CS(=O)(=O)C2	-1.4	7%	8%	-4%	7	u	-3.1%
CCN(CC)C(=O)[C@H]1CC(CC(=O)NC(C)(C)C)C(=O)N2CCc3c([nH]c4ccc(OC)cc34)[C@]12C (some centres not stated)	x	x	6%	x	-5	x	-5.1%
COc1cccc(C(=O)C2CCCN(Cc3cccc(OCCO)c3)C2)c1 (configuration not stated)	3.3	u	-5%	10%	67	11	x
CC(=O)N1CCc2cc(Br)cc(S(=O)(=O)NCCCN3CCC(C)CC3)c21	-0.1	4%	9%	16%	-4	11	-1.6%
CCOC(=O)c1cc2sc(C)cc2n1CC(=O)NCc1ccc(F)cc1	-1.9	u	41%[activator]	u	-7	-41	-4.8%
CC1CCCC(C)N1C(=O)COC(=O)c1c[nH]c2ccccc12 (configuration not stated)	x	13%	-1%	x	-13	-4	-2.8%
O=C(COC(=O)/C=C/c1cccc(F)c1)Nc1cccc(S(=O)(=O)NC2=NCCCCC2)c1	x	2%[15.4 µM]	-16%	x	15	x	x
CC(=O)c1ccc(NC(=O)CCNC(=O)c2ccc(Cl)cc2)cc1	-3.9	3%	0%	10%	x	-26	-1.9%
CCOC(=O)C1CCCN(C/C=C/c2ccccc2[N+](=O)[O-])C1 (configuration not stated)	2.0	u	-2%	-4%	-1	5	0.0%
O=C(O)c1ccc(NC(=S)N2CCCCC2)cc1	-4.2	11%[15.4 µM]	7%	-5%	9	12	x
O=C(OCc1nc2ccsc2c(=O)[nH]1)c1ccccc1	x	14%[15.4 µM]	8%	x	18	5	x
C(=N\Nc1nc2ccccc2[nH]1)/c1cccs1	6.2	0%[15.4 µM]	-8%	-19%	-4	-7	-5.4%
S=C1NNC2(CC3CC2C2CCCC32)NN1 (configuration not stated)	-2.1	5%	1%	-10%	-14	3	-0.3%
O=C(OCC(O)C(O)C(O)C(SCc1ccccc1)SCc1ccccc1)c1ccccc1 (configuration not stated)	x	-9%	-12%	x	-4	x	x
c1ccc(CSc2ccc3nnc(-c4cccnc4)n3n2)cc1	0.8	u	11%	10%	-5	-3	-5.9%
Cc1ccc(NC(=S)NC(=O)c2cncc(Br)c2)cc1Cl	x	-6%[15.4 µM]	2%	x	3	x	x
Cn1cc(Br)c(-c2cccc(N3C(=O)CC(C)(C)CC3=O)c2)n1	-3.3	9%[15.4 µM]	12%	10%	2	0	-0.3%
CN(C)CCNc1ncnc2oc(-c3ccccc3)c(-c3ccccc3)c12	2.0	9%	3%	8%	43	5	3.4%
CN(C(=O)c1cccc(NC(=O)Cc2ccc(NC(=O)C3CCN(C(=O)C4CCC4)CC3)cc2)c1)C1CC1	x	x	9%	x	9	x	3.9%
COc1ccc(-c2noc(CCc3ccccc3)n2)cc1	-7.4	26%[15.4 µM]	-10%	18%	-19	9	-0.7%
CS(=O)(=O)N1N=C(c2ccco2)CC1c1ccc(Br)cc1 (configuration not stated)	6.3	2%	0%	-9%	2	-1	0.9%
COCCN1CCn2c(nc3cc(Nc4nnc(C)c5ccccc45)ccc32)C1	-1.9	-6%	-4%	6%	-14	26	0.6%
O=S1(=O)Nc2c(ccc3cccnc23)-c2ccccc21	1.9&-0.1	-29%	-4%	-18%&-25%	8	-7	0.5%
O=c1c2ccccc2nc(SCc2nc3ccccc3s2)n1CCCO	9.7	8%	12%	u	2	-11	-26%
CC(SC1CCCC1)C(=O)NC(C)(C#N)C(C)C (configuration not stated)	1.5	0%	0%	10%	-5	-3	2.2%
C=Cn1cc[n+](CC(=O)c2ccc(-c3ccccc3)cc2)c1	-4.3	-38%[inhibitor]	0%	-5%	15	-13	x
N#Cc1ccccc1Sc1ccccc1C(=O)OCC(=O)NC12CC3CC(CC(C3)C1)C2	7.6	-17%	-29%	12%	5	-3	-6.8%
Cc1c(Cl)cccc1Nc1nc(N)nc(CN2CCCCCC2)n1	1.9	5%	12%	-8%	5	7	-2.8%
COc1ncccc1C(=O)N1CCCC(C(=O)c2cc(F)ccc2F)C1 (configuration not stated)	2.6	37%	4%	0%	-6	3	0.3%
O=C(CSC(=S)N1CCCC1)Nc1ccc(Br)cc1Cl	x	0%[15.4 µM]	-6%	x	-9	7	-2.4%
CN(C)CCCN(C(=O)c1ccco1)c1nc2c(F)cc(F)cc2s1	-2.3	10%[15.4 µM]	23%	14%	8	3	x

Profiles, quoted from the list.
Profile of C=Cn1cc[n+](CC(=O)c2ccc(-c3ccccc3)cc2)c1 : Menin-MLL FL inh = -4.3; gsp agonist = -38%[inhibitor]; gsp antagonist = 0%; Sfp inh = -5%; TRPML1 inh = 15; TRPV1 PAM = -13; ClpP mod = x
Profile of Cc1c(Cl)cccc1Nc1nc(N)nc(CN2CCCCCC2)n1 : Menin-MLL FL inh = 1.9; gsp agonist = 5%; gsp antagonist = 12%; Sfp inh = -8%; TRPML1 inh = 5; TRPV1 PAM = 7; ClpP mod = -2.8%

Remaining list, next part:
SMILES	Menin-MLL FL inh	gsp agonist	gsp antagonist	Sfp inh	TRPML1 inh	TRPV1 PAM	ClpP mod
O=C(CCNS(=O)(=O)c1cccc2nsnc12)NCCc1ccccc1	0.2	-67%[inhibitor]	-7%	-10%	-3	13	-29%
N#CC(C#N)=C1C=C2C=C(N3CCOCC3)CCC2CC1 (configuration not stated)	u	-3%[15.4 µM]	-18%	11%	-7	-12	0.3%
Cc1cc(C)cc(NC(=O)CCC(=O)Nc2nnc(C(C)C)s2)c1	x	24%	8%	30%	-3	1	0.0%
CCN(CC)C(=O)C1=C(C)N(Cc2ccc(C(C)(C)C)cc2)C(=O)C(CC(=O)NC2CCCC2)C1 (configuration not stated)	x	-20%	x	x	0	x	-0.1%
C[C@H](NC(=O)c1ccc(C(C)(C)C)cc1)C(=O)N1CCOCC1	x	-13%	5%	x	13	x	-0.7%
c1ccc(Nc2c3c(nc4ncnn24)CCC3)cc1	-1.0	-3%	12%	7%	-11	-2	1.5%
CCC(=O)Nc1ccc(C(=O)NNC(=O)CCCCC(=O)NNC(=O)c2ccc(NC(=O)CC)cc2)cc1	x	28%	x	x	2	x	-3.0%
COc1ccc(C=O)cc1OS(=O)(=O)c1ccc(NC(C)=O)cc1	-0.4	21%[15.4 µM]	9%	11%	3	-1	x
O=C(Cc1nnc(NC(=O)c2ccccc2)s1)N/N=C\c1ccc(O)c(O)c1	-1.5	5%	-5%	-13%	-12	-5	-11%
COc1cccc(N=Cc2nc(-c3ccccc3)oc2OC(C)=O)c1	-5.2	4%[15.4 µM]	9%	-16%	-11	-4	x
Cc1cc2nnc(SCC(=O)Nc3cccc(S(=O)(=O)N4CCOCC4)c3)n2c2ccccc12	1.7	7%	-2%	13%	23	-1	-4.2%
Cc1c(OCC(=O)NCCCN2CCCC2=O)ccc2c3c(c(=O)oc12)CCC3	x	u	-4%	10%	-6	9	3.7%
CCCN(CC(=O)Nc1ccc(F)c(F)c1F)Cc1cc(=O)n2ccsc2n1	-3.0	3%[15.4 µM]	8%	-11%	-14	-17	-3.0%
CC1CC(C)CN(C(=O)CSc2n[nH]c(N)n2)C1 (configuration not stated)	x	u	4%	x	10	x	0.8%
COC(=O)C1=NNC2(c3ccc(C)cc3)C(=O)N(c3cccc(C)c3C)C(=O)C12 (configuration not stated)	0.0	-22%	-3%	-5%	-11	-17	-22%
CN1CCCC(OC(=O)c2cc(Cl)cc(Cl)c2)C1 (configuration not stated)	1.2	3%[15.4 µM]	3%	-10%	-21	-2	-0.5%
c1nc(N2CCNCC2)c2sc3nc(N4CCOCC4)c4c(c3c2n1)CCC4	-6.5	x	x	6%	x	4	x
O=C(O)Cn1nnnc1SCC(=O)Nc1ccc(OC(F)(F)F)cc1	-0.4	-13%	8%	-9%	1	-18	0.3%

Source: PubChem (National Center for Advancing Translational Sciences (NCATS))
